Screening data deposited in PubChem BioAssay by Broad Institute.
DUX4 txn inh: blocks DUX4-driven transcriptional activation. 293T-iDUX4 ZSCAN4-Gaussia luciferase reporter, 24 h; hits give low values. activity change, negative = inhibition, % (no concentration beside the values). actives 0.8% (n = 37,000). AID 1224904;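 active means -10% or lower and over 25 points stronger than a control reporter; inconclusive means -10% or lower with a smaller gap; inactive means above -10%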;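 further: 0% = median of neutral control wells and -100% = median of positive control wells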
DUX4 txn inh difference: second read-out of DUX4 txn inh, no call of its own (marks repeat the call); Gaussia minus Italica difference, %; measured here: selective DUX4 reporter inhibition;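 worked out from the two reporters; negative = selective loss of the DUX4 reporter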
DUX4 txn inh control: also measured in DUX4 txn inh; calls as there; activity change, negative = inhibition, %; measured here: Italica tet-on control reporter;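 0 = neutral control and -100 = positive control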
The depositor's hits bear a star; ? = inconclusive; / = no result given. The list is partial; rates above refer to the full screens.

Structure	DUX4 txn inh	DUX4 txn inh difference	DUX4 txn inh control
COc1ccc(NC(=O)N(C)C[C@@H]2Oc3c(NC(=O)c4ccncc4)cccc3C(=O)N([C@@H](C)CO)C[C@@H]2C)cc1	-1.1	-8.1	7.0
COCC(=O)N1C[C@H]2[C@@H](c3ccccc31)[C@@H](CO)N2C(=O)Nc1ccccc1Cl	0.2	-0.9	1.1
CCCC#Cc1ccc([C@@H]2[C@@H](CO)N3CCCCN(CC4CCOCC4)C[C@@H]23)cc1	-5.3	-8.9	3.6
Cc1ccc(S(=O)(=O)N2C[C@H](O)COC[C@@H]3O[C@@H](CC(=O)N[C@H]4CCN(Cc5ccccc5)C4)CC[C@H]32)cc1	-2.0	8.5	-10.4
Cc1noc(C)c1NC(=O)N(C)C[C@H]1OCCCC[C@@H](C)Oc2ccc(NC(=O)Nc3ccc(C(F)(F)F)cc3)cc2C(=O)N([C@H](C)CO)C[C@@H]1C	1.8	3.5	-1.8
COc1cccc(-c2ccc3c(c2)O[C@@H](CN(C)C(=O)c2ccccc2F)[C@@H](C)CN([C@@H](C)CO)S3(=O)=O)c1	0.7	0.2	0.5
CCCC(=O)Nc1ccc2c(c1)C(=O)N(C)[C@H]1CC[C@H](CC(=O)NCCN3CCCCC3)O[C@@H]1CO2	-0.5	-10.1	9.6
COc1ccc(S(=O)(=O)N(C)C[C@@H]2Oc3ccc(NC(=O)NC4CCCCC4)cc3CC(=O)N([C@@H](C)CO)C[C@@H]2C)cc1	-0.3	2.1	-2.4
CC(C)CC#Cc1ccc2c(c1)O[C@@H](CN(C)Cc1cncnc1)[C@@H](C)CN([C@@H](C)CO)S2(=O)=O	4.5	-0.7	5.1
C[C@@H]1CN([C@@H](C)CO)C(=O)c2c(c3ccccc3n2C)-c2ccccc2CO[C@@H]1CN(C)C(=O)[C@@H](Cc1ccccc1)N(C)C	?	/	/
O=C(CCN1CCCCC1)N[C@H]1CC[C@H](CCn2cc(-c3cccc(F)c3)nn2)O[C@@H]1CO	7.2	7.9	-0.7
CCCN1C[C@@H](C)[C@H](OC)CN(C)C(=O)c2cc(NS(=O)(=O)c3ccccc3)ccc2OC[C@@H]1C	-2.4	-4.7	2.3
COc1cccc(C(=O)Nc2ccc3c(c2)C(=O)N(C)[C@@H]2CC[C@H](CC(=O)NCCCN4CCOCC4)O[C@H]2CO3)c1	-0.2	2.5	-2.7
O=C(C1CCOCC1)N1C[C@H]2[C@@H](c3ccccc31)[C@H](CO)N2Cc1ccc(Cl)cc1	-0.2	1.3	-1.5
C[C@@H]1CN([C@@H](C)CO)C(=O)c2cc(-c3ccc(C#N)cc3)cnc2O[C@@H]1CN(C)C(=O)Nc1ccccc1	1.8	-5.1	6.9
O=C(CC1CC1)N1CC2(C1)[C@H](c1ccccc1)[C@@H](CO)N2CC1CCOCC1	8.5	7.2	1.3
CN(C)C(=O)C[C@@H]1CC[C@@H](NC(=O)C2CCOCC2)[C@H](CO)O1	5.6	1.8	3.7
C[C@@H]1CN([C@H](C)CO)C(=O)CCCn2nncc2CO[C@H]1CN(C)C(=O)Nc1cccc2ccccc12	-0.1	-0.1	0.0
CO[C@@H]1CN(C)C(=O)c2ccc(NS(=O)(=O)c3ccccc3)cc2OC[C@@H](C)N(C(=O)NC(C)C)C[C@H]1C	2.2	1.0	1.2
O=C(C[C@@H]1CC[C@H]2[C@@H](COC[C@H](O)CN2C(=O)Nc2ccccc2)O1)NCCCN1CCOCC1	6.7	4.9	1.8
COCC(=O)N1C[C@H](C)[C@@H](OC)CN(C)C(=O)c2cc(NC(=O)c3ccc(OC)cc3)ccc2OC[C@H]1C	-4.6	-1.7	-2.9
Cc1ccccc1S(=O)(=O)N(C)C[C@H]1OCc2ccccc2-c2c(n(C)c3ccccc23)C(=O)N([C@@H](C)CO)C[C@H]1C	?	/	/
Cc1cccc(S(=O)(=O)N[C@H]2CC[C@@H](CCNC(=O)Nc3cc(F)ccc3F)O[C@@H]2CO)c1	-6.4	-14.4	7.9
O=C(c1ccc(F)cc1)N1C[C@@H]2[C@H](c3ccccc31)[C@@H](CO)N2Cc1ccc2c(c1)OCO2	5.0	3.1	2.0
C[C@H]1CN([C@@H](C)CO)C(=O)CCCn2cc(nn2)CO[C@@H]1CN(C)S(=O)(=O)c1ccccc1F	1.6	-0.3	1.9
COc1ccc(C(=O)Nc2ccc3c(c2)C(=O)N(C)C[C@H](OC)[C@@H](C)CN(C)[C@H](C)CO3)cc1	4.8	-1.2	6.0
O=C(c1ccccn1)N1CC(=O)N2[C@H](CO)[C@H](c3ccc(C4=CCCC4)cc3)[C@@H]2C1	8.9	4.3	4.6
C/C=C/c1ccc([C@H]2[C@H]3CN(Cc4ccccc4)CC(=O)N3[C@H]2CO)cc1	20.8	11.2	9.7
CCCNC(=O)C[C@@H]1CC[C@H]2[C@H](COc3ccc(NC(=O)CC)cc3C(=O)N2C)O1	-2.4	0.6	-3.0
CN1CCN(C(=O)C[C@@H]2CC[C@H]3[C@@H](COC[C@H](O)CN3Cc3cccc(F)c3)O2)CC1	9.9	6.2	3.6
N#C[C@H]1[C@@H](c2ccc(-c3ccccc3)cc2)[C@H](CO)N1C(=O)Cc1ccccc1	-3.2	-1.1	-2.1
O=C(C[C@@H]1C[C@@H]2c3cc(NC(=O)C4CCC4)ccc3O[C@@H]2[C@H](CO)O1)NCCc1ccccc1	-0.1	-1.1	1.0
CCCNC(=O)N1[C@@H](CO)[C@@H]2c3ccccc3N(C)C[C@@H]21	0.8	0.2	0.6
CC(C)CC#Cc1ccc([C@H]2[C@@H](CO)N3C(=O)CN(S(=O)(=O)c4ccccc4)C[C@@H]23)cc1	-9.3	-11.7	2.4
N#C[C@@H]1[C@@H](c2ccccc2C2=CCCC2)[C@H](CO)N1C(=O)C1CC1	-5.8	-3.1	-2.8
CCCNC(=O)[C@H]1[C@H](CO)[C@H]2Cn3c(cccc3=O)[C@@H]1N2C(=O)C1CC1	-4.3	-1.7	-2.5
CCCN(C)C[C@H]1OCc2cnnn2CCCC(=O)N([C@H](C)CO)C[C@H]1C	2.7	-0.6	3.3
O=C(c1ccncc1)N1CC[C@@H]2[C@@H](CO)Nc3ccc(Br)cc3[C@@H]21	22.6	23.5	-1.0
O=C(C[C@@H]1CC[C@H]2[C@@H](COC[C@H](O)CN2Cc2cc(F)cc(F)c2)O1)Nc1nccs1	0.8	-1.3	2.0
Cc1noc(C)c1NC(=O)N[C@H]1C=C[C@@H](CC(=O)Nc2ccc(-c3ccccc3)cc2)O[C@H]1CO	-4.8	-0.5	-4.3
CCC(=O)N[C@H]1CC[C@@H](CC(=O)NCc2ccccc2F)O[C@H]1CO	0.4	2.0	-1.6
CCN1[C@@H]2c3ccc(-c4cccc(F)c4)c(=O)n3C[C@@H]2[C@@H](CO)[C@@H]1C(=O)N[C@H](C)c1ccccc1	-2.2	-1.6	-0.6
C[C@@H]1CCCCO[C@H](CN(C)C(=O)NC2CCCCC2)[C@H](C)CN([C@H](C)CO)C(=O)c2cc(NC(=O)Cc3ccccc3)ccc2O1	-4.2	-0.5	-3.7
CN(C)C(=O)c1cccc(-c2ccccc2[C@@H]2[C@H](C#N)N(C(=O)C3CCC3)[C@H]2CO)c1	27.5	15.8	11.8
CS(=O)(=O)Nc1ccc2c(c1)[C@H]1C[C@@H](CC(=O)NCc3ccncc3)O[C@H](CO)[C@H]1O2	10.4	0.9	9.5
COc1ccc(S(=O)(=O)N(C)C[C@@H]2OCc3cn(nn3)CCCC(=O)N([C@H](C)CO)C[C@@H]2C)cc1	-2.0	0.9	-2.9
CNC[C@@H]1Oc2c(NC(=O)Nc3c(C)noc3C)cccc2C(=O)N([C@@H](C)CO)C[C@@H]1C	0.1	3.2	-3.1
CNC[C@H]1Oc2ccc(NC(=O)NC3CCCCC3)cc2CC(=O)N([C@@H](C)CO)C[C@@H]1C	3.0	1.9	1.1
CO[C@@H]1CN(C)C(=O)c2cc(NC(=O)Cc3ccccc3)ccc2OC[C@@H](C)NC[C@@H]1C	-1.7	-3.1	1.4
C[C@@H]1CCCCO[C@H](CN(C)C(=O)c2ccccc2)[C@H](C)CN([C@H](C)CO)C(=O)c2cc(NC(=O)C3CCCCC3)ccc2O1	2.2	-1.8	4.0
Cc1ccccc1S(=O)(=O)N1CCCCN2[C@H](CO)[C@@H](c3ccc(-c4cccc(F)c4)cc3)[C@@H]2C1	-19.6*	-27.6*	8.0*
C[C@H](CO)N1C[C@H](C)[C@@H](CN(C)Cc2ccncc2)Oc2c(NC(=O)C3CCOCC3)cccc2C1=O	-1.2	-6.1	5.0
COc1ccccc1CN1[C@H](CO)[C@@H]2c3ccccc3N(C(=O)c3ccc(F)cc3)C[C@@H]21	2.0	2.6	-0.6
CN1C(=O)c2cc(NC(=O)c3cccc(F)c3)ccc2OC[C@@H]2O[C@H](CC(=O)N3CCc4ccccc4C3)CC[C@H]21	?	/	/
Cc1cccc(S(=O)(=O)N2C[C@@H]3[C@H](c4ccccc42)[C@@H](CO)N3CC2CCCC2)c1	1.4	1.4	0.0
CO[C@H]1CN(C)C(=O)c2cccc(C#N)c2OC[C@H]2O[C@H](CC[C@@H]2OC)CCN(C)C(=O)[C@H]1C	3.6	4.3	-0.7
CCC(=O)N1CC2(C1)[C@H](c1ccccc1)[C@H](CO)N2C(=O)c1ccncc1	10.5	9.1	1.5
O=C(C[C@H]1C[C@H]2c3cc(NS(=O)(=O)c4ccccc4)ccc3O[C@H]2[C@@H](CO)O1)NCC1CC1	0.2	-3.0	3.2
CC(=O)N1Cc2cc(C(=O)NCC(F)(F)F)nc(-c3cccc(-c4cncnc4)c3)c2[C@H]1CCO	3.7	2.6	1.1
COc1ccc2c3c(n(C)c2c1)[C@H](CO)N(C(=O)CN(C)C)CC31CCN(S(C)(=O)=O)CC1	19.9	9.4	10.5

(next part)
canonical_smiles | DUX4 txn inh | DUX4 txn inh difference | DUX4 txn inh control
CCCC(=O)N1CCC2(CC1)CN(Cc1ccncc1)[C@H](CO)c1[nH]c3cc(OC)ccc3c12 | 8.5 | -5.5 | 14.0
COc1ccc(C#Cc2ccc([C@H]3[C@@H](CO)N4CCCCN(Cc5ccncc5)C[C@H]34)cc2)cc1 | -32.2* | -26.5* | -5.7*
CN1C(=O)c2cc(NC(=O)c3ccc4c(c3)OCO4)ccc2OC[C@H]2O[C@H](CC(=O)O)CC[C@H]21 | 5.0 | 1.8 | 3.2
CNC[C@H]1Oc2ccc(NC(=O)Cn3cnnn3)cc2C(=O)N([C@H](C)CO)C[C@H]1C | -4.9 | -0.9 | -4.0
CC(C)C#Cc1ccc([C@H]2[C@@H](CO)N(C(=O)c3cccc(F)c3)[C@H]2C#N)cc1 | 2.9 | 1.5 | 1.3
CN(C[C@@H]1N[C@H](CO)[C@@H]1c1ccc(-c2cccc(F)c2)cc1)C(=O)CC1CC1 | 4.1 | -0.8 | 5.0
CO[C@H]1CN(C)C(=O)c2cc(NC(=O)C3CCCC3)ccc2OC[C@H](C)N(C(=O)CC2CC2)C[C@@H]1C | 5.3 | 10.0 | -4.7
C[C@@H]1CN([C@@H](C)CO)C(=O)c2cc(NC(=O)CCC(F)(F)F)ccc2O[C@@H](C)CCCCO[C@@H]1CN(C)CC1CCCCC1 | 2.3 | -0.1 | 2.4
O=C(O)[C@H]1[C@H](CO)[C@H]2Cn3c(ccc(-c4ccccc4F)c3=O)[C@H]2N1Cc1ccccc1 | -6.7 | -6.7 | 0.1
CO[C@@H]1CN(C)C(=O)c2ccc(NC(=O)C3CCOCC3)cc2OC[C@H](C)N(Cc2cccnc2)C[C@H]1C | 3.9 | 4.8 | -0.9
O=C(CC(F)(F)F)N1C[C@H]2[C@@H](c3ccccc31)[C@@H](CO)N2C(=O)C1CCOCC1 | 1.1 | 0.0 | 1.1
Cc1noc(C)c1NC(=O)N(C)C[C@H]1OCCCC[C@H](C)Oc2ccc(N(C)C)cc2C(=O)N([C@@H](C)CO)C[C@@H]1C | 1.7 | 1.7 | 0.0
O=C(Nc1ccc(F)cc1)N1[C@H](CO)[C@@H]2c3ccccc3NC[C@@H]21 | -4.7 | -5.1 | 0.4
CO[C@@H](CN(C)C(=O)Nc1ccc(Cl)cc1)[C@H](C)CN(Cc1ccccc1Cl)[C@H](C)CO | -2.4 | 1.8 | -4.2
O=C(Nc1ccc(Cl)cc1)N[C@H]1CC[C@@H](CCn2cc(-c3ccccc3F)nn2)O[C@H]1CO | ? | / | /
COCC(=O)N1C[C@@H]2[C@H](c3ccccc31)[C@H](CO)N2Cc1cc(F)ccc1F | 1.3 | 2.2 | -0.9
COc1cccc(C#Cc2ccc([C@H]3[C@@H](CO)N4C(=O)CN(C(=O)Cc5ccccc5)C[C@@H]34)cc2)c1 | ? | / | /
CCS(=O)(=O)N1CCCCN2[C@H](CO)[C@H](c3ccc(-c4ccccc4F)cc3)[C@@H]2C1 | 4.3 | -20.9 | 25.2

Gathered by group, the entries above with a CF3 group (four)
canonical_smiles | DUX4 txn inh | DUX4 txn inh difference | DUX4 txn inh control
Cc1noc(C)c1NC(=O)N(C)C[C@H]1OCCCC[C@@H](C)Oc2ccc(NC(=O)Nc3ccc(C(F)(F)F)cc3)cc2C(=O)N([C@H](C)CO)C[C@@H]1C | 1.8 | 3.5 | -1.8
CC(=O)N1Cc2cc(C(=O)NCC(F)(F)F)nc(-c3cccc(-c4cncnc4)c3)c2[C@H]1CCO | 3.7 | 2.6 | 1.1
C[C@@H]1CN([C@@H](C)CO)C(=O)c2cc(NC(=O)CCC(F)(F)F)ccc2O[C@@H](C)CCCCO[C@@H]1CN(C)CC1CCCCC1 | 2.3 | -0.1 | 2.4
O=C(CC(F)(F)F)N1C[C@H]2[C@@H](c3ccccc31)[C@@H](CO)N2C(=O)C1CCOCC1 | 1.1 | 0.0 | 1.1
